MgrA DNA FP: modulators of Staphylococcus aureus MgrA DNA binding; inhibition, %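 (about 10 µg/mL by stock and volumes)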; 84,000 tested, 0.13% active; fluorescence polarization;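 active = above 50% in either of two replicates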;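 also: 0% = protein plus DNA without compound and 100% = DNA alone without protein; higher means less MgrA bound to DNA so lower polarization; one replicate is shown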
Sa helicase inh: blocks Staphylococcus aureus DNA helicase; purified S. aureus helicase, fluorescence unwinding assay; about half of the hits fall short of the stated cut; inhibition, %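 (tested at about 80 µM)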; 120,000 tested, 0.05% active;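 active = both duplicates at 50% or more, or one of them with a favoured structure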;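 also: 0% = mean of negative control wells and 100% = mean of positive control wells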
The depositor's hits bear a star; / = not tested or not shown.

Order of values: MgrA DNA FP	Sa helicase inh
> CC(OC(=O)C1=NNC(=O)CC1)C(=O)Nc1ccccc1-c1ccccc1 (configuration not stated)
→ /	-3
> Cc1[nH]nc(-c2ccc(S(=O)(=O)N(C)Cc3ccco3)s2)c1C
→ /	11
> c1ccc(-c2cn3c4ccccc4nc3n2CCCN2CCOCC2)cc1
→ -0.6	-4
> Cc1ccc(C(=O)C2=C(O)C(=O)N(CC3CCCO3)C2c2cccc(Cl)c2)o1 (configuration not stated)
→ /	-4
> C/C=C(\C)c1nnc(NC(=O)Cc2ccccc2)s1
→ -1.2	7
> CCc1cccc(C)c1NC(=O)c1ccc(OC(C)=O)cc1
→ 3.0	-2
> CSc1nsc(SCC(=O)OC2CC(C)CCC2C(C)C)n1 (configuration not stated)
→ 0.7	6
> Cc1cc(C)nc(-n2nc(C)c3c2N(C)C(=O)CC3c2ccccc2Cl)n1 (configuration not stated)
→ /	-23
> CCCC(=O)O/N=C(\c1ccccc1)c1ccncc1
→ /	-36
> CCNc1sc(C(=O)OC)c(N)c1C#N
→ 0.2	/
> O=C(Nc1cc(Cl)nc(NC(=O)C2CCCC2)n1)C1CCCC1
→ -2.0	4
> CCOCCn1ccc2c(OCc3cccnc3)cccc2c1=O
→ /	10
> CC(C)CC(=O)Nc1c[nH]c(=O)[nH]c1=O
→ 1.3	1
> NC(=S)NCC1CC(c2ccc(Cl)cc2Cl)=NO1 (configuration not stated)
→ 0.8	-6
> Cc1ccc(-n2c(=O)c3ccccc3n3c(SCC4CCCCO4)nnc23)c(C)c1 (configuration not stated)
→ /	6

The results go on:
Order of values: MgrA DNA FP	Sa helicase inh
> Cc1cccn2cc(CCNC(=O)CC3CCCCC3)nc12
→ -1.1	4
> C/C(=N\N=C(N)N)c1ccco1
→ /	4
> O=C(Oc1ccc(-c2nnco2)cc1)c1cn2ccccc2n1
→ /	6
> Cc1csc(=O)n1CCC(=O)OC(C)C(=O)c1ccc(Br)cc1 (configuration not stated)
→ /	12
> CC1CCCC(NC(=O)CC2Nc3ccccc3NC2=O)C1C (configuration not stated)
→ 2.7	4
> COc1cc2c(cc1N)CCCC2
→ 3.5	7
> c1coc(-c2nc3nc4ccccc4nc3n2CC2CCCO2)c1 (configuration not stated)
→ /	3
> CCc1ccc(NC(=O)Nc2ccc3c(c2)N(C)C(=O)c2ccccc2S3)cc1
→ -0.1	0
> Nc1c(C(=O)C23CC4CC(CC(C4)C2)C3)oc2ccccc12
→ /	2
> COCC[N+]1(C)CCCCC1
→ -1.9	10
> Clc1cccc(CSc2nc3ccncc3n2Cc2ccccn2)c1
→ /	-1
> O=C1NCCCCC1NS(=O)(=O)c1ccc2c(c1)OCCCO2 (configuration not stated)
→ /	-3
> CC(C)Cn1c(N)c(C(=O)c2ccc(S(=O)(=O)N3CCCCC3)cc2)c(=O)[nH]c1=O
→ /	-10
> CCOC(=O)c1ccc(NC(=O)CC2SC(=O)N(CN3CCOCC3)C2=O)cc1 (configuration not stated)
→ /	0
> CCN1CCN(CC(O)COc2ccc(C(=O)OC)cc2)CC1 (configuration not stated)
→ /	-5

Among those listed so far, 2 have a thiophene ring, fused or not.
Order of values: MgrA DNA FP	Sa helicase inh
> Cc1[nH]nc(-c2ccc(S(=O)(=O)N(C)Cc3ccco3)s2)c1C
→ /	11
> CCNc1sc(C(=O)OC)c(N)c1C#N
→ 0.2	/

Carrying on.
Order of values: MgrA DNA FP	Sa helicase inh
> COc1ccc(Br)cc1/C=C1\N=C(c2c(-c3ccccc3)noc2C)OC1=O
→ -1.1	/
> CC(Sc1ncnc2ccccc12)C(=O)O (configuration not stated)
→ -5.0	16
> CN1CCC(NCc2ccccc2)CC1
→ -0.9	4
> COCCN1C(=O)c2ccccc2C(C(=O)N2CCCC2)C1c1c[nH]c2ccccc12 (configuration not stated)
→ 1.8	8
> Cc1ccc(CNS(=O)(=O)N(C)C)cc1
→ 1.2	-12
> O=C(CCn1c(=O)oc2ccccc21)NCCc1ccccc1
→ /	7
> CC(C)(C)C(=O)OCc1nc(-c2ccc3c(c2)OCO3)cs1
→ -2.0	/
> CC(=O)Nc1oc(-c2ccco2)c(-c2ccco2)c1C#N
→ /	0
> CCN(CC)c1ccc(/C=C/C(=O)NCCN2CCC(N(C)C3CCCCC3C)CC2)cc1 (configuration not stated)
→ /	13
> O=c1onc(-c2cccc(C(F)(F)F)c2)n1-c1ccccc1
→ /	-41
> Cc1cccc(CC(=O)Nc2cc(C)c3c(=O)oc4ccccc4c3n2)c1
→ /	3
> COc1cccc(NC(=O)c2cnc(SC)n(C)c2=O)c1
→ /	5
> Cc1ccc(Nc2nc3ccccc3[nH]2)cc1
→ /	14
> O=C1NC(=Nc2ccccc2)S/C1=C/c1cccs1
→ 2.8	12
> Cc1[nH]c2ccccc2c1C(=O)CN1C(=O)NC2(CCOc3ccccc32)C1=O (configuration not stated)
→ /	-7

(listing goes on)
Order of values: MgrA DNA FP	Sa helicase inh
> Cc1sc2nc(C(C)C)n3c(=S)[nH]nc3c2c1C
→ 2.2	0
> COC(=O)c1ccc(CSC(=S)N(C)C)cc1
→ /	6
> Cc1ccc2c(c1)nnn2C1CCN(CC(=O)N(c2ccccc2)c2ccccc2)CC1
→ -4.0	7
> CC1CN(C(=O)CSc2nc3scc(-c4ccccc4)c3c(=O)n2N)CC(C)O1 (configuration not stated)
→ /	6
> O=C(c1ccccc1)N1CCCN(c2c(Cl)cncc2Cl)CC1
→ -1.0	/
> CC(=O)Nc1cc(C)nn1C(C)(C)C
→ -2.0	-7
> CCCCNC(=O)Cn1c(=O)oc2ccccc21
→ /	8
> Brc1ccc(Nc2ncnc3c2cnn3-c2ccccc2)cc1
→ /	-18
> COc1cc2c(cc1OC)C(c1cccs1)N(C(=O)C1CC1)CC2 (configuration not stated)
→ /	-7
> COc1ccc(-c2nnc3ccc(SCC(N)=O)nn23)cc1
→ 0.7	18
> CN=c1scc(-c2cccs2)n1/N=C/c1ccccc1O
→ /	-3
> CCN(CC(=O)Nc1ccc(OC)cc1)C(=O)Cc1cccs1
→ /	-7
> C=C(C)C(=O)Nc1ccc(O)cc1C(=O)O
→ -2.5	7
> O=C(NC1CCCC1)c1noc2c1CCc1ccccc1-2
→ /	-1
> Cc1ccc2oc(=O)c3cnn(CC(=O)N4CCc5ccccc5C4)c3c2c1
→ /	22

The list goes on:
Order of values: MgrA DNA FP	Sa helicase inh
> CN1CCN(CCNC(=O)c2ccc(-n3ccc4ccccc43)s2)CC1
→ /	8
> COC(=O)/C=C1/N/C(=N\c2nc(C)cc(C)n2)N(c2ccc(C)c(C)c2)C1=O
→ /	-6
> Cc1cccc(-c2noc(CNC(=O)C(C)(C)Oc3ccc(Cl)cc3)n2)c1
→ 0.4	-4
> O=C(O)C1C2C=CC3(CN(Cc4cccc(Cl)c4Cl)C(=O)C13)O2 (configuration not stated)
→ 1.8	-12
> Cc1ccc(C(=O)N2CCN(c3ncnc4c3cnn4-c3ccccc3)CC2)cc1
→ -1.8	3
> Cc1c(C(=O)N(Cc2ccccc2)C(C)C)cnn1-c1ccccc1
→ -1.6	/
> N#CC(C(=O)NCCc1ccccc1)c1nc2ccccc2nc1N1CCOCC1 (configuration not stated)
→ /	-8
> O=C1CC(c2ccco2)CC2=C1C(c1ccccc1)n1c(nc3ccccc31)N2 (configuration not stated)
→ /	-28
> CCOC(=O)c1ccc(NC(=O)c2ccc(CN3CC(=O)N4CCCCC4C3=O)cc2)cc1 (configuration not stated)
→ /	15
> COC(=O)c1ccc(-c2ccco2)n1CC(=O)NC1CCCC1
→ 2.2	0
> CN(C)c1nc(SCCO)nc(N(C)C)n1
→ /	2
> CCOC(=O)c1ccc(COc2nc3ccccc3nc2-c2ccccc2NC(C)=O)cc1
→ /	2
> Cc1cc2ncn(CC(O)COCC3CC=CCC3)c2cc1C (configuration not stated)
→ /	10
> CSC(=S)N(C)c1ccccn1
→ -2.1	8
> CS(=O)(=NS(=O)(=O)c1ccc(Cl)cc1)c1ccccc1 (configuration not stated)
→ -2.1	/

The list goes on (5 carried over from the part before).
Order of values: MgrA DNA FP	Sa helicase inh
> CN(C)c1nc(SCCO)nc(N(C)C)n1
→ /	2
> CCOC(=O)c1ccc(COc2nc3ccccc3nc2-c2ccccc2NC(C)=O)cc1
→ /	2
> Cc1cc2ncn(CC(O)COCC3CC=CCC3)c2cc1C (configuration not stated)
→ /	10
> CSC(=S)N(C)c1ccccn1
→ -2.1	8
> CS(=O)(=NS(=O)(=O)c1ccc(Cl)cc1)c1ccccc1 (configuration not stated)
→ -2.1	/
> CC(=O)Nc1nc2ccccc2nc1Cl
→ 4.5	12
> CCCCOC(=O)Nc1ccccc1C(N)=O
→ /	-11
> CC(=O)Nc1ccc(Nc2cc(C(F)(F)F)nc3ncnn23)cc1
→ 1.9	6
> O=c1ccc(-c2ccccc2)nn1Cc1ccncc1
→ /	-3
> CC(OC(=O)/C=C/c1ccc(Br)o1)C(=O)Nc1ccc2c(c1)OCO2 (configuration not stated)
→ /	-10
> O=C1CSC(=Nc2ccccc2)N1Cc1ccccc1
→ 1.9	9
> COc1ccc2nc3oc(C(=O)Nc4cccc(SC)c4)cc3cc2c1
→ /	-36
> O=C(CSc1ccc2c(c1)OCCO2)c1ccc[nH]1
→ /	18
> O=C(Nc1ccccc1F)C1CCCC1
→ -0.3	10
> Nc1ncc(C(O)(C(F)(F)F)C(F)(F)F)s1
→ /	-14
> COc1cccc2cc(-c3nc4ccccc4s3)c(=O)oc12
→ /	-4
> COCC(=O)NCCc1nc2ccccc2n1Cc1cc(C)ccc1C
→ /	-12
> O=C(COC(=O)c1ccc(S(=O)(=O)N2CCCC2)cc1)Nc1ncc(Cl)cc1Cl
→ /	-8
> O=C(O)CCCNC1=NCCS1
→ /	18
> CC12CCCCC1CCC2NCCCCCCN1C(=O)C=CC1=O (configuration not stated) (tested in a mixture with another compound)
→ 1.1	/

2 entries drawn at random from the list so far:
Order of values: MgrA DNA FP	Sa helicase inh
> O=C(Nc1ccccc1F)C1CCCC1
→ -0.3	10
> Nc1ncc(C(O)(C(F)(F)F)C(F)(F)F)s1
→ /	-14

Additional entries follow.
Order of values: MgrA DNA FP	Sa helicase inh
> N#Cc1ccc(COC(=O)c2ccccc2-c2ncc(-c3ccccc3)o2)cc1
→ /	-9
> COc1ccc(-c2nnc(SCC(=O)Nc3ccc4[nH]c(=O)[nH]c4c3)n2C2CCCCC2C)cc1 (configuration not stated)
→ /	1
> C(=N\n1cnnc1)/c1ccc(-c2ccccc2)cc1
→ /	-11
> O=C(c1cc2nc(-c3cccs3)cc(C(F)(F)F)n2n1)N1CCN(c2ccccc2)CC1
→ -0.1	/
> CN1CCN(S(=O)(=O)c2ccc(NN)nc2)CC1
→ /	9
> COc1cccc(SCC(=O)NC2Cc3ccccc3C2)c1
→ -2.2	/
> CCCSc1nnc2c(n1)OC(C)=Nc1ccc(Br)cc1-2
→ /	-37
> CNC(=O)c1nc(-c2ccccc2)oc1C
→ -0.7	-4
> Cc1ccc(CNC(=O)c2nc3c(nnn3Cc3ccco3)c(=O)[nH]2)cc1
→ 0.1	18
> O=C(CCN1C(=O)/C(=C/c2ccccc2)SC1=S)Nc1ccccc1
→ /	-8
> C/C(=N\N=C(c1ccccc1)c1ccccc1)c1ccco1
→ /	-10
> CCCC(=O)n1c(=O)oc2cc(Br)ccc21
→ 1.3	5
> CCOC(=O)NC(=O)Cn1nnc(-c2ccccc2C)n1
→ /	-4
> CCC(CC)NC(=O)Cc1ccccc1OC
→ -1.7	0
> CCC1COC(c2cccn2Cc2ccc(F)cc2Cl)=N1 (configuration not stated)
→ /	3

(continued)
Order of values: MgrA DNA FP	Sa helicase inh
> Cc1ccc(S(=O)(=O)N2Cc3ccccc3C2)cc1
→ 0.2	1
> O=C1CCc2c(ccc3ccccc23)O1
→ 0.6	/
> CC1CN(Cc2cc(O)c(CN3CC(C)OC(C)C3)cc2O)CC(C)O1 (configuration not stated)
→ /	3
> CCCCNC(=O)c1ccc(NS(=O)(=O)CC)cc1
→ 1.1	3
> CSc1ccccc1NC(=O)CO/N=C(\C)c1cc2ccccc2o1
→ /	-4
> Cc1cc(C)n2nc(SCc3ccc(Cl)cc3)nc2n1
→ 0.5	-8
> C=CCN1C(=O)/C(=C2/C(=O)N(CCC)c3ccc(Br)cc32)SC1=S
→ /	5
> O=C(CSc1nc2c(sc3ccccc32)c(=O)n1Cc1ccccc1)NCCC1=CCCCC1
→ 1.0	-2
> O=C(O)C(Cc1ccccc1)NS(=O)(=O)c1cccs1 (configuration not stated)
→ /	-14
> CC(=Nc1cccc(Br)c1)c1sc2ccccc2c1O
→ -2.0	/
> COc1cccc2c1O/C(=N\O)C(C(=O)Nc1cccc(Br)c1)C2 (configuration not stated)
→ /	20
> Clc1ccc2nc(N3CCCC3)sc2c1
→ /	5
> CSC(=Nc1cccc(C(F)(F)F)c1)N1CCCC1
→ 1.2	/
> O=C(O)C1CCN(c2ncnc3scc(-c4ccccc4)c23)CC1
→ -3.0	/
> O=C1COc2cc(S(=O)(=O)CCC(=O)N3CCCCC3)c(Cl)cc2N1
→ /	-19

Later entries
Order of values: MgrA DNA FP	Sa helicase inh
> CCCCN1Cc2c(n(CC(=O)c3ccc(OC)cc3)c3cc(-c4ccccc4)nn3c2=O)C1=O
→ -1.6	/
> CSc1sc(C#N)c2c1C(=O)CC(c1ccc(C)cc1)C2 (configuration not stated)
→ /	5
> CC1CCN(C(=O)c2ccc3c(c2)C(=O)N(CCC2=CCCCC2)C3=O)CC1
→ 4.8	7
> CC(C)C(C)(C#N)NC(=O)Cn1cc(Br)ccc1=O (configuration not stated)
→ /	6
> CC(CC(=O)c1cccs1)CC(=O)c1cccs1
→ /	12
> CC1CC(N(C(=O)c2sc3cc([N+](=O)[O-])ccc3c2Cl)c2ccccc2)c2ccccc2N1C(=O)Cc1ccccc1 (configuration not stated)
→ -0.4	/
> COC(=O)c1c[nH]n2c(NC3CCCCC3)c(-c3ccc(C)cc3)nc12
→ 0.4	6
> COc1ccc(N(C(=O)C(C)Oc2ccccc2)C2C=CS(=O)(=O)C2)cc1 (configuration not stated)
→ /	-25
> CC(Oc1ccc(Cl)cc1Cl)c1ccnc2ncnn12 (configuration not stated)
→ -2.1	/
> O=C(CS(=O)(=O)c1ccccc1)Nc1ccc2c(c1)C(=O)NC2=O
→ /	15

Only part of the results is shown; rates above refer to the full screens.
